# Screening results deposited in PubChem by Broad Institute.
# A1 apoptosis 2 = blocks A1, raising caspase activity | MEF A1-2A-BIM cells, caspase-Glo luminescence, 3 h; percent of clofoctol response, DMSO zero | caspase activation, % (concentration not given with the values) | 24,000 tested, under 10 active | AID 2465; in the data active = caspase activation above about 5.9%;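 also: wells of about 30 µL received 50 nL stock; the first replicate is given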
#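 Material: mouse embryonic fibroblasts co-expressing A1 and BIM (A1-2A-BIM), primed for A1 dependence / Quantity: 2500 cells/well / Buffer or medium: RPMI-1640 growth medium with 10% FBS / Doses: 50 nL compound per well, pinned / Schedule: 3 h compound exposure at 37 °C / Signal: Caspase-Glo luminescence (DEVD substrate) / Measure: Caspase-3/7 activation, seen as rise in luminescence signal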
# Starred values were filed as active, the others as inactive.
SMILES,A1 apoptosis 2
COc1ccc(CN(C)C[C@@H]2Oc3ccc(NC(=O)c4ccncc4)cc3CC(=O)N([C@H](C)CO)C[C@@H]2C)cc1,0.3
COc1ccc(S(=O)(=O)Nc2ccc3c(c2)C(=O)N([C@H](C)CO)C[C@@H](C)[C@H](CN(C)S(=O)(=O)c2ccccc2)O3)cc1,1.6
C[C@@H]1CN([C@@H](C)CO)C(=O)Cc2cc(NC(=O)Cn3cnnn3)ccc2O[C@@H]1CN(C)C(=O)Nc1ccc2c(c1)OCO2,0.1
CCCN(C)C[C@H]1OCCCC[C@@H](C)Oc2ccc(NS(=O)(=O)c3ccccc3)cc2C(=O)N([C@H](C)CO)C[C@H]1C,0.1
C[C@@H]1CN([C@@H](C)CO)C(=O)c2cc(NC(=O)Nc3ccc(C(F)(F)F)cc3)ccc2O[C@@H](C)CCCCO[C@@H]1CN(C)Cc1ccc2c(c1)OCO2,0.1
C[C@@H]1CN([C@@H](C)CO)C(=O)c2cccc(NC(=O)c3ccncc3)c2O[C@H]1CN(C)S(=O)(=O)c1cn(C)cn1,-0.2
C[C@H](CO)N1C[C@H](C)[C@@H](CN(C)Cc2ccc(C(F)(F)F)cc2)Oc2ccc(NC(=O)c3ccncc3)cc2CC1=O,-0.7
C[C@@H]1CN([C@@H](C)CO)C(=O)c2cc(NC(=O)NC3CCCCC3)ccc2O[C@@H](C)CCCCO[C@@H]1CN(C)C(=O)CCCN(C)C,0.2
C[C@@H]1CN([C@@H](C)CO)C(=O)c2cccc(NS(=O)(=O)c3ccc(Cl)cc3)c2O[C@@H]1CN(C)S(=O)(=O)c1cn(C)cn1,-1.1
C[C@H](CO)N1C[C@H](C)[C@@H](CN(C)S(=O)(=O)c2cn(C)cn2)Oc2c(NC(=O)Nc3cccc4ccccc34)cccc2C1=O,-0.4
C[C@@H]1CN([C@@H](C)CO)C(=O)c2cccc(NC(=O)Nc3cccc4ccccc34)c2O[C@H]1CN(C)S(=O)(=O)c1cccs1,1.0
C[C@@H]1CN([C@H](C)CO)C(=O)Cc2cc(NC(=O)CCN3CCOCC3)ccc2O[C@H]1CN(C)S(=O)(=O)c1cn(C)cn1,1.3
C[C@@H]1CN([C@@H](C)CO)C(=O)c2cc(NC(=O)Nc3cccc4ccccc34)ccc2O[C@@H]1CN(C)C,0.9
Cc1ccc(S(=O)(=O)Nc2ccc3c(c2)C(=O)N([C@H](C)CO)C[C@H](C)[C@@H](CN(C)C(=O)Nc2c(C)noc2C)OCCCC[C@@H](C)O3)cc1,1.1
CC(C)NC(=O)Nc1ccc2c(c1)C(=O)N([C@@H](C)CO)C[C@@H](C)[C@@H](CN(C)C(=O)Nc1ccc(F)cc1)OCCCC[C@@H](C)O2,0.1
C[C@H](CO)N1C[C@H](C)[C@H](CN(C)Cc2ccc3c(c2)OCO3)Oc2c(NS(=O)(=O)c3cccs3)cccc2C1=O,0.4
CNC[C@H]1Oc2ccc(NC(=O)CCN3CCOCC3)cc2C(=O)N([C@@H](C)CO)C[C@@H]1C,1.0
Cc1noc(C)c1NC(=O)N(C)C[C@H]1Oc2ccc(NC(=O)CCN3CCOCC3)cc2C(=O)N([C@@H](C)CO)C[C@@H]1C,0.1
C[C@H]1CN([C@@H](C)CO)C(=O)c2cc(NC(=O)NC3CCCCC3)ccc2O[C@@H]1CN(C)Cc1ccncc1,-0.8
C[C@H](CO)N1C[C@H](C)[C@@H](CN(C)C(=O)Nc2ccc(F)cc2)Oc2ccc(NC(=O)Cn3cnnn3)cc2C1=O,0.3

# 5 compounds picked at random from those above:
SMILES,A1 apoptosis 2
C[C@H](CO)N1C[C@H](C)[C@@H](CN(C)Cc2ccc(C(F)(F)F)cc2)Oc2ccc(NC(=O)c3ccncc3)cc2CC1=O,-0.7
C[C@@H]1CN([C@H](C)CO)C(=O)Cc2cc(NC(=O)CCN3CCOCC3)ccc2O[C@H]1CN(C)S(=O)(=O)c1cn(C)cn1,1.3
CCCN(C)C[C@H]1OCCCC[C@@H](C)Oc2ccc(NS(=O)(=O)c3ccccc3)cc2C(=O)N([C@H](C)CO)C[C@H]1C,0.1
C[C@@H]1CN([C@@H](C)CO)C(=O)Cc2cc(NC(=O)Cn3cnnn3)ccc2O[C@@H]1CN(C)C(=O)Nc1ccc2c(c1)OCO2,0.1
C[C@@H]1CN([C@@H](C)CO)C(=O)c2cc(NC(=O)Nc3ccc(C(F)(F)F)cc3)ccc2O[C@@H](C)CCCCO[C@@H]1CN(C)Cc1ccc2c(c1)OCO2,0.1

# Taken from above.
# Cc1ccc(S(=O)(=O)Nc2ccc3c(c2)C(=O)N([C@H](C)CO)C[C@H](C)[C@@H](CN(C)C(=O)Nc2c(C)noc2C)OCCCC[C@@H](C)O3)cc1 @ A1 apoptosis 2: 1.1
# COc1ccc(CN(C)C[C@@H]2Oc3ccc(NC(=O)c4ccncc4)cc3CC(=O)N([C@H](C)CO)C[C@@H]2C)cc1 @ A1 apoptosis 2: 0.3

# (continued)
SMILES,A1 apoptosis 2
C[C@H]1CN([C@@H](C)CO)C(=O)Cc2cc(NS(=O)(=O)c3cn(C)cn3)ccc2O[C@@H]1CN(C)C(=O)Nc1ccc(C(F)(F)F)cc1,-0.4
Cc1noc(C)c1NC(=O)Nc1ccc2c(c1)C(=O)N([C@H](C)CO)C[C@@H](C)[C@H](CN(C)Cc1ccc(-c3ccccc3)cc1)O2,0.4
C[C@@H]1CN([C@H](C)CO)C(=O)c2cc(NS(=O)(=O)c3ccc(F)cc3)ccc2O[C@@H](C)CCCCO[C@@H]1CN(C)Cc1ccc2c(c1)OCO2,-0.4
COc1ccc(S(=O)(=O)N(C)C[C@@H]2Oc3ccc(NC(=O)C4CC4)cc3CC(=O)N([C@@H](C)CO)C[C@H]2C)cc1,-0.1
C[C@@H]1CCCCO[C@H](CN(C)Cc2ccc3c(c2)OCO3)[C@@H](C)CN([C@@H](C)CO)C(=O)c2cc(NC(=O)CCC(F)(F)F)ccc2O1,0.6
C[C@@H]1CN([C@H](C)CO)C(=O)c2cc(NC(=O)Nc3cccc4ccccc34)ccc2O[C@H]1CN(C)C(=O)Nc1ccc2c(c1)OCO2,-0.4
C[C@@H]1CN([C@H](C)CO)C(=O)c2cc(NC(=O)CCN3CCOCC3)ccc2O[C@H]1CN(C)Cc1ccc(C(=O)O)cc1,0.7
C[C@@H]1CCCCO[C@@H](CN(C)S(=O)(=O)c2cccs2)[C@H](C)CN([C@H](C)CO)C(=O)c2cc(NS(=O)(=O)c3ccc(Cl)cc3)ccc2O1,-1.1
COc1ccc(S(=O)(=O)Nc2cccc3c2O[C@@H](CN(C)C(=O)Nc2c(C)noc2C)[C@H](C)CN([C@H](C)CO)C3=O)cc1,-1.2
Cc1noc(C)c1S(=O)(=O)Nc1ccc2c(c1)C(=O)N([C@H](C)CO)C[C@@H](C)[C@H](CN(C)CC1CCCCC1)O2,-0.4
O=C(CCCCCC(=O)N/N=C/c1ccncc1Br)NO,-0.3
CC(C)NC(=O)Nc1ccc2c(c1)C(=O)N([C@@H](C)CO)C[C@H](C)[C@H](CN(C)S(=O)(=O)c1cccs1)OCCCC[C@@H](C)O2,0.5
C[C@H](CO)N1C[C@H](C)[C@@H](CN(C)Cc2ccc(C(=O)Nc3ccccc3N)cc2)Oc2ccc(NS(=O)(=O)c3cn(C)cn3)cc2CC1=O,-1.0
C[C@@H]1CN([C@H](C)CO)C(=O)Cc2cc(NS(=O)(=O)c3ccccc3)ccc2O[C@H]1CN(C)C,-0.8
C[C@@H]1CN([C@H](C)CO)C(=O)c2cc(NC(=O)Nc3ccc(C(F)(F)F)cc3)ccc2O[C@@H]1CN(C)C(=O)Nc1ccc2c(c1)OCO2,-0.2
COc1ccc(C#Cc2cnc3c(c2)C(=O)N([C@H](C)CO)C[C@H](C)[C@H](CN(C)S(C)(=O)=O)O3)cc1OC,0.1
Cc1ccc(S(=O)(=O)N(C)C[C@H]2OCCCC[C@@H](C)Oc3ccc(NC(=O)c4ccncc4)cc3C(=O)N([C@@H](C)CO)C[C@@H]2C)cc1,0.2
CC(C)NC(=O)N(C)C[C@H]1Oc2ccc(NC(=O)Nc3ccccc3)cc2C(=O)N([C@@H](C)CO)C[C@H]1C,-0.4
C[C@@H]1CCCCO[C@H](CN(C)CC2CC2)[C@H](C)CN([C@@H](C)CO)C(=O)c2cc(NS(=O)(=O)c3ccc(F)cc3)ccc2O1,-0.4
Cc1noc(C)c1NC(=O)N(C)C[C@@H]1OCCCC[C@H](C)Oc2ccc(NC(=O)Nc3ccccc3)cc2C(=O)N([C@@H](C)CO)C[C@H]1C,0.2

# The closing 2 records of the part before open the next one.
SMILES,A1 apoptosis 2
C[C@@H]1CCCCO[C@H](CN(C)CC2CC2)[C@H](C)CN([C@@H](C)CO)C(=O)c2cc(NS(=O)(=O)c3ccc(F)cc3)ccc2O1,-0.4
Cc1noc(C)c1NC(=O)N(C)C[C@@H]1OCCCC[C@H](C)Oc2ccc(NC(=O)Nc3ccccc3)cc2C(=O)N([C@@H](C)CO)C[C@H]1C,0.2
C[C@H](CO)N1C[C@H](C)[C@H](CN(C)C(=O)Nc2ccc(C(F)(F)F)cc2)Oc2ccc(NC(=O)Nc3ccc4c(c3)OCO4)cc2C1=O,1.6
CNC[C@@H]1Oc2ccc(NS(=O)(=O)c3c(C)noc3C)cc2CC(=O)N([C@H](C)CO)C[C@@H]1C,1.2
C[C@@H]1CCCCO[C@H](CN(C)C(=O)c2ccccc2)[C@@H](C)CN([C@@H](C)CO)C(=O)c2cc(NC(=O)c3ccccc3)ccc2O1,-0.1
C[C@H](CO)N1C[C@H](C)[C@@H](CN(C)C(=O)Nc2ccc(F)cc2)Oc2ccc(N(C)C)cc2CC1=O,-1.3
Cc1ccc(S(=O)(=O)Nc2ccc3c(c2)C(=O)N([C@H](C)CO)C[C@@H](C)[C@@H](CN(C)S(=O)(=O)c2ccc(Cl)cc2)OCCCC[C@@H](C)O3)cc1,1.7
Cc1noc(C)c1S(=O)(=O)Nc1ccc2c(c1)C(=O)N([C@@H](C)CO)C[C@@H](C)[C@@H](CN(C)C(=O)NC(C)C)OCCCC[C@H](C)O2,-0.5
Cc1noc(C)c1NC(=O)Nc1cccc2c1O[C@@H](CN(C)C)[C@H](C)CN([C@H](C)CO)C2=O,-0.2
C[C@@H]1CCCCO[C@H](CN(C)S(=O)(=O)c2ccc(Cl)cc2)[C@@H](C)CN([C@H](C)CO)C(=O)c2cc(NS(=O)(=O)c3ccc(Cl)cc3)ccc2O1,-1.0
COc1ccc(S(=O)(=O)Nc2ccc3c(c2)C(=O)N([C@@H](C)CO)C[C@@H](C)[C@H](CN(C)Cc2ccc(C(=O)O)cc2)OCCCC[C@@H](C)O3)cc1,0.4
C[C@H](CO)N1C[C@H](C)[C@@H](CN(C)Cc2ccc3c(c2)OCO3)Oc2c(NC(=O)C3CCCCC3)cccc2C1=O,0.4
C[C@@H]1CN([C@@H](C)CO)C(=O)Cc2cc(NC(=O)C3CC3)ccc2O[C@H]1CN(C)Cc1ccc2c(c1)OCO2,-0.1
COC(=O)CCCCCCC(=O)N/N=C/c1ccc(N(C)C)cc1,1.0
Cc1noc(C)c1NC(=O)Nc1ccc2c(c1)C(=O)N([C@@H](C)CO)C[C@@H](C)[C@@H](CN(C)C)O2,0.4
Cc1noc(C)c1NC(=O)N(C)C[C@@H]1Oc2ncc(C#Cc3cccc(F)c3)cc2C(=O)N([C@H](C)CO)C[C@@H]1C,0.1
C[C@H](CO)N1C[C@H](C)[C@H](CN(C)S(=O)(=O)c2cccs2)OCCCC[C@H](C)Oc2ccc(N(C)C)cc2C1=O,-0.4
Cc1noc(C)c1NC(=O)N(C)C[C@H]1Oc2ccc(NC(=O)Nc3ccccc3)cc2C(=O)N([C@@H](C)CO)C[C@H]1C,-0.4
C[C@@H]1CN([C@@H](C)CO)C(=O)CCCn2nncc2CO[C@H]1CN(C)S(=O)(=O)c1ccc2ccccc2c1,1.1
Cc1ccc(S(=O)(=O)Nc2ccc3c(c2)C(=O)N([C@H](C)CO)C[C@H](C)[C@@H](CN(C)S(=O)(=O)c2cccs2)O3)cc1,0.9
CC(C)NC(=O)Nc1ccc2c(c1)C(=O)N([C@@H](C)CO)C[C@H](C)[C@H](CN(C)C(=O)CCC(F)(F)F)OCCCC[C@@H](C)O2,1.2
C[C@H]1CCCCO[C@H](CN(C)S(=O)(=O)c2ccc(Cl)cc2)[C@@H](C)CN([C@@H](C)CO)C(=O)c2cc(NS(=O)(=O)c3ccc(F)cc3)ccc2O1,-0.5
C[C@@H]1CN([C@@H](C)CO)C(=O)c2cccc(NS(=O)(=O)c3cccs3)c2O[C@@H]1CN(C)Cc1ccc(Cl)c(Cl)c1,0.1
C[C@@H]1CN([C@H](C)CO)C(=O)c2cc(N(C)C)ccc2O[C@H]1CN(C)S(C)(=O)=O,0.7
C[C@H]1CN([C@@H](C)CO)C(=O)c2cccc(NC(=O)c3ccc(-c4nccs4)cc3)c2O[C@@H]1CN(C)Cc1ccc(Oc2ccccc2)cc1,-0.3
Cc1noc(C)c1S(=O)(=O)Nc1ccc2c(c1)C(=O)N([C@@H](C)CO)C[C@H](C)[C@@H](CN(C)C(=O)CCC(F)(F)F)OCCCC[C@H](C)O2,0.9
C[C@@H]1CCCCO[C@@H](CN(C)C(=O)CCCN(C)C)[C@@H](C)CN([C@@H](C)CO)C(=O)c2cc(NS(=O)(=O)c3ccc(Cl)cc3)ccc2O1,-0.4
CCCN(C)C[C@H]1OCCCC[C@@H](C)Oc2ccc(N(C)C)cc2C(=O)N([C@H](C)CO)C[C@H]1C,-0.3
CNC[C@H]1OCCCC[C@@H](C)Oc2ccc(NC(=O)NC(C)C)cc2C(=O)N([C@H](C)CO)C[C@@H]1C,1.5
C[C@H]1CCCCO[C@H](CN(C)C(=O)C2CCCCC2)[C@@H](C)CN([C@@H](C)CO)C(=O)c2cc(NC(=O)c3ccncc3)ccc2O1,-0.8
COc1ccc(S(=O)(=O)N(C)C[C@H]2OCCCC[C@@H](C)Oc3ccc(NC(=O)Nc4ccc(F)cc4)cc3C(=O)N([C@H](C)CO)C[C@H]2C)cc1,0.1
C[C@@H]1CN([C@@H](C)CO)C(=O)Cc2cc(NC(=O)CCCCCC(=O)Nc3ccccc3N)ccc2O[C@H]1CN(C)Cc1ccccc1,-0.1

# Not all compounds are listed; the hit share may differ from the screen's.
